Screening results: PubChem, several laboratories
PrP 5UTR inh: inhibition of PrP 5' UTR reporter expression. cell-based PrP 5' UTR mRNA reporter, plate reader. inhibition, % (no concentration beside the values). 340,000 compounds, 0.35% hits;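 active = every replicate at 50% or more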;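 also: 0 = median of the neutral control wells; tested in H4 reporter cells; numbers are from one replicate; inactives centre near -14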
BJeLR viability: MLPCN primary cell-based screen for lethality selective to Ras in HRASV12 cells; AID 1554, 2009; 300,000 compounds, 0.17% hits; BJeLR (HRASV12) viability, CellTiter-Glo ATP luminescence, 48 h; reference of the scale not given here; inhibition, % (test concentration not listed);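 active = replicate mean above 50%; inconclusive = above 50% but judged a plate artefact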;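 also: 50 nL library stock added to about 25 µL; numbers are from one replicate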
Autofluor counter: flagged as autofluorescent in microsphere protease counterscreen; 360,000 compounds, 3.1% hits; compound autofluorescence counterscreen, microsphere flow cytometry; active compounds read high; fluorescence intensity (concentration not given with the values);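 active = at least 3 SD above the mean of all compounds, about 16000 in these data; inconclusive = too few beads counted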;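 also: 100 nL of 1 mM stock went into each well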
Sa ugtP lethal: growth inhibition of ugtP-null S. aureus, primary screen, RN4220 ugtP deletion, OD600 | AID 1259309, 2017 | growth inhibition, % (no concentration beside the values) | 330,000 compounds, 0.54% hits | 16 h; some inactives read as strong as hits;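 active = z-score under -3 and OD600 up to 0.15 on both plates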;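 also: plate controls were untreated wells for no effect and antibiotic for full effect; wells of about 80 µL received 100 nL stock; the first replicate is given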
Mtb hypoxia inh: PubChem AID 1159583 | M. tuberculosis hypoxia-regulated fluorescent reporter, fluorescence | fluorescence inhibition, % (test concentration not listed) | 300,000 compounds, 0.1% hits;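 active = 35 to 45% if threefold the growth effect, above 45% if 1.5-fold the growth effect; inactive = the rest, general growth blockers included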;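 also: wells of about 50 µL received 100 nL stock; 0% = vehicle wells and 100% = reference inhibitor wells; whole bacteria with a GFP reporter of the hypoxia response; strong numbers were not always called active; many hits fall short of the cut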
Sa RN4220 lethal: growth inhibition of S. aureus RN4220, primary screen, OD600; inhibition, % (no concentration beside the values); 330,000 compounds, 0.33% hits; 16 h;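 active = z-score of -3 or lower and OD600 up to 0.18 on both plates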;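 also: plate controls were untreated cells for no effect and reference antibiotic for full effect; stock transfer was 100 nL into about 80 µL; one replicate is shown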
Mtb hypoxia inh growth: recorded beside Mtb hypoxia inh, whose call it bears; growth inhibition, %; measured here: M. tuberculosis growth (absorbance);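 0% = vehicle and 100% = reference antibiotic; read after six days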
* = called active by the depositor; u = inconclusive; x = not tested or not shown.

cpd	Molecule	Mtb hypoxia inh	Sa ugtP lethal	PrP 5UTR inh	Mtb hypoxia inh growth	Autofluor counter	BJeLR viability	Sa RN4220 lethal
1	CCOC(=O)C1CCN(C(=O)c2ccc(N3CCCC3=O)cc2)CC1	1	6	-18	-2	x	x	2.6
2	OC[C@@H]1[C@@H](c2ccc(Cl)cc2)C(c2ccc(F)cc2)=NN1c1ccccc1	3	-36	-7	0	3721	x	-18
3	O=C(NNC(=O)c1cccs1)c1ccncc1	-10	0	-11	-9	2096	-1	0.4
4	Cc1cc(S(=O)(=O)NCCc2ccccc2)ccc1-n1cnnn1	2	8	-12	14	5224	12	0.8
5	Cc1cc(C(=O)NN=Cc2ccc(-c3ccc(F)cc3)o2)c(C)o1	26	7	-14	30	3100	x	-6.9
6	C[C@]12CCC3C(CC[C@@H]4C[C@@H](O)CC[C@]34C)C1CC[C@@H]2O (stereo partly drawn)	7	12	-6	2	3596	x	8.7
7	CNC(=S)N/N=C/c1ccco1	x	x	-3	x	4778	-4	x
8	CCc1nc(OCc2ccco2)c2sc3nc4c(cc3c2n1)COC(C)(C)C4	x	-3	-13	x	4529	2	-1.7
9	CC(C)n1c(SC2CCOC2=O)nc2ccccc21 (stereo not drawn)	x	-1	-20	x	4016	0	1.9
10	O=C(Nc1ccccc1N1CCCCC1)C1CCN(C(=O)c2ccc(Cl)cc2)CC1	1	-7	-8	9	6580	6	-3.1
11	COc1ccc(-c2sc3cc4c(cc3c2C#CCO)OCO4)cc1	10	-12	-3	14	4170	x	4.8
12	CC1CCC2(CC1)NC(=O)N(CC(=O)c1cccn1C)C2=O (stereo not drawn)	-3	1	0	2	2482	-7	1.2
13	CC(C)(C)C(=O)NC(=S)Nc1ccccc1C(=O)Nc1ccccc1	4	5	-18	6	9570	-27	1.6
14	Cc1cccc(C)c1N1CCN(CCn2c(=S)[nH]c3ccccc3c2=O)CC1	-4	8	-7	-2	3948	-4	0.2
15	CC12CCC(C(=O)Nc3nccs3)(OC1=O)C2(C)C (stereo not drawn)	1	-2	-13	14	6596	-4	1.5
16	CCCc1c2ccccc2nc2ccccc12	12	-6	-40	5	2443	-2	3.9
17	CN(Cc1ccsc1)C(=O)Cn1cc(Br)ccc1=O	-7	-3	-41	-9	4051	-10	-2.3
18	Cc1cccc(-c2noc(CCC(=O)NCCc3ccccc3)n2)c1	2	18	-17	2	4507	-3	-1.7
19	COc1cccc(C(=O)C2CCCN(Cc3cn(C)nc3-c3ccccc3)C2)c1 (stereo not drawn)	-2	5	-12	-2	2764	0	2.4
20	CC(C)(C)c1ccc(OCCNC(=S)NC(=O)c2cccnc2)cc1	5	18	-18	4	2038	-5	5.8
21	COc1cc(-c2c(C#N)c(=O)[nH]c3c2c(C)nn3-c2ccccc2)ccc1O	5	15	-13	-8	u	2	2.1
22	Cc1nc(N2CCCCC2)sc1C(=O)c1ccc(Cl)c([N+](=O)[O-])c1	2	-3	x	4	x	6	2.5
23	S=C(NCCc1ccccc1)Nc1ncccn1	12	2	-50	11	2889	x	2.2
24	C=CCN(c1ccc(C(=O)N2CCN(c3ccc(F)cc3)CC2)cc1)S(C)(=O)=O	x	6	-1	x	2047	-8	3.2
25	CCCCNC(=O)CN1C(=O)COc2ccc(S(=O)(=O)N3CCCCCC3)cc21	0	1	-15	5	5717	2	0.6
26	COc1ccc(Cn2nnnc2CN2CCc3ccccc32)cc1	1	10	11	-3	9508	-3	7.8
27	O=C(NN=C1CCc2ccccc21)C1CC1	8	15	x	9	x	x	1.3
28	O=C(CC(=O)NC1CCCCC1)NN=Cc1ccccc1F	9	4	x	12	x	x	5.2
29	COc1ccc(C2NC(=O)c3n[nH]c(C)c32)c(OC)c1 (stereo not drawn)	2	9	5	5	5192	5	6.0
30	Cc1cccc(NS(=O)(=O)c2ccc(C(=O)NCC(c3ccccc3)N(C)C)cc2)c1C (stereo not drawn)	3	3	-37	7	6112	3	1.5
31	COc1cccc(C(=O)N(Cc2ccco2)c2c(N)n(Cc3ccccc3)c(=O)[nH]c2=O)c1	-5	5	-15	-3	x	x	5.0
32	O=C(NC1CCS(=O)(=O)C1)C1CCCN(S(=O)(=O)c2ccc(Cl)cc2)C1 (stereo not drawn)	-4	-1	-15	5	2557	14	0.9
33	CCOC(=O)/C=C1/SCC(=O)N1CC(=O)Nc1ccccc1OC(F)F	2	3	-16	14	4034	x	3.0
34	Cc1nc(C/C(=N\N)c2ccc(O)cc2O)cs1	x	x	-8	x	4771	11	x
35	Cc1nc2ccccc2nc(=O)c1NNc1ccc([N+](=O)[O-])cc1	2	-6	-16	2	3676	-1	2.2
36	CC(C)Oc1ccc(C2CC(=O)N(c3ccc(C(=O)O)cc3)C2=O)cc1 (stereo not drawn)	-14	-1	-20	-4	2362	2	-1.3
37	Cc1cc(Nc2ccc(Br)cc2)nc2ccccc12	-4	84*	-34	10	4499	-5	-13
38	CC1(c2ccc(OCC(N)=O)cc2)NC(=O)NC1=O (stereo not drawn)	-1	0	-12	-1	4866	0	-2.3
39	O=C(NCc1ccccc1)C1(c2ccccc2)CCN(S(=O)(=O)c2ccccc2)CC1	0	6	-19	17	16987*	-23	-1.2
40	COc1cc(/C=C(/C#N)C(=O)Nc2ccccc2)c(Br)cc1OCc1ccc(C(=O)O)cc1	8	2	-2	-5	4785	-13	1.4
41	O=C(NCC1CCCO1)c1cncc(Br)c1 (stereo not drawn)	7	5	-4	5	4126	-4	2.7
42	O=C(NCCN1CCOCC1)/C(=C/c1ccc(Cl)cc1)NC(=O)c1ccccc1	11	4	-25	3	3711	-1	3.4
43	O=C(CCC(=O)Nc1ccc(Br)cc1)NN=Cc1ccc(F)cc1	13	3	x	-6	x	x	1.9
44	CCOc1ccc(NC(=O)C2CCCN2C(=O)Oc2ccccc2)cc1 (stereo not drawn)	x	x	-17	x	5142	-4	x
45	CN(CCO)c1cc(N2CCC3(CC2)OCCO3)c2nonc2c1[N+](=O)[O-]	6	-1	-21	6	2420	-9	-1.7
46	CCC(Sc1nc(N)c(NC(=O)c2ccc(Br)o2)c(=O)[nH]1)C(=O)O (stereo not drawn)	-1	2	-11	6	4956	0	1.0
47	CCOC(=O)CC1=C(C(=O)OCC)C2(C(=O)N1)C(C(=O)OC)=C(N)Oc1ccccc12 (stereo not drawn)	1	-3	4	9	4276	3	-0.2
48	O=C1c2cccc3cccc(c23)C(=O)N1Cc1ccccc1	18	6	-5	1	4260	5	1.8
49	O=C1NC(=O)/C(=C\c2ccc(Cl)nc2)S1	1	8	-31	-2	2567	10	7.3
50	Cc1cccc(NC(=O)C(c2ccccc2Cl)N2CCOCC2)c1 (stereo not drawn)	0	3	-12	-5	4656	3	4.7
51	C=CCc1cccc(CNc2nc3ccccc3n2C)c1O	-3	-12	-24	-4	3293	-3	-8.5
52	COc1cccc2sc3ccc(C#CC4(N)CCCCC4)cc3c(=O)c12	-2	0	-29	-2	4296	-7	0.2
53	N#Cc1c(-c2ccccc2)cc(-c2ccc(O)cc2)nc1N	25	-2	-13	5	3133	5	1.8
54	Cc1ccc(NC(=O)COC(=O)CCn2c(C)csc2=O)c([N+](=O)[O-])c1	11	7	-15	5	u	-8	2.3
55	NC(=O)CN1CCN(S(=O)(=O)c2ccc(Br)cc2)CC1	0	-4	-7	6	4170	-16	-2.8
56	COc1ccc(OCC(=O)Nc2ccccc2C(=O)NC(C)C)cc1	13	5	-31	8	2510	-5	5.5
57	O=C(c1ncn(Cc2ccccc2)c1C(=O)N1CCN(c2ccccc2)CC1)N1CCN(c2ccccc2)CC1	5	4	-5	-1	4180	x	7.3
58	CC(C)c1ccccc1NC(=O)Cn1c(-c2ccccc2Cl)nc2ccccc21	10	5	-7	-2	2539	-9	1.5
59	CN(C)c1ccc(NC(=O)CCCc2ccccc2)cc1	0	-1	-76	8	4555	-1	2.8
60	O=C(CN(Cc1ccccc1)C(=O)CCl)c1cccc(Br)c1	24	20	-9	17	3968	x	36

The listing continues:
cpd	Molecule	Mtb hypoxia inh	Sa ugtP lethal	PrP 5UTR inh	Mtb hypoxia inh growth	Autofluor counter	BJeLR viability	Sa RN4220 lethal
61	CC(C)C[C@H](NC(=O)c1nc[nH]c1C(=O)N(C)Cc1ccccc1)C(=O)OCc1ccccc1	x	x	-2	x	4265	-4	x
62	Cc1ccc2nsnc2c1S(=O)(=O)N(Cc1ccco1)Cc1cc2cccc(C)c2[nH]c1=O	2	-11	-6	4	10617	25	4.0
63	CN(CC(=O)O/N=C(\N)c1ccccn1)S(=O)(=O)c1ccc(Br)cc1	-10	-6	-34	-10	8237	6	-1.4
64	N#CCC(=O)Nc1ccc(C(=O)OC(C(=O)Nc2ccc([N+](=O)[O-])cc2Br)c2ccccc2)cc1 (stereo not drawn)	6	2	1	7	3045	x	-3.1
65	COc1ccccc1NS(=O)(=O)c1ccc2oc(N)nc2c1	4	6	-28	7	5725	-4	0.0
66	O=C(O)c1ccc(NC(=O)c2ccc3c(c2)C(=O)N(CC2CCCO2)C3=O)cc1 (stereo not drawn)	-5	11	-35	3	4047	-13	3.1
67	CN(CC(=O)Nc1ccc2c(c1)OCO2)S(=O)(=O)c1ccc(F)cc1	6	1	-21	-2	3551	3	2.5
68	O=C(CNC(=O)C12CC3CC(CC(C3)C1)C2)NN=Cc1ccccn1	6	3	x	1	x	x	4.1
69	COC(=O)Cn1c(=NC(=O)C2COc3ccccc3O2)sc2cc(S(N)(=O)=O)ccc21 (stereo not drawn)	8	19	-18	4	7975	-3	4.7
70	CC(=O)Nc1ccc(N2CCN(C(=O)c3cccs3)CC2)cc1	8	4	-13	9	3895	4	7.0
71	C/C(=N\NC(=O)c1c(Cl)c(C)nn1C)c1cccc(NC(=O)COc2ccccc2)c1	x	x	-47	x	3520	3	x
72	CCCOc1ccc(C(O)CCNC(CC(=O)O)c2ccccc2)cc1 (stereo not drawn)	-6	2	-26	5	2121	-15	3.0
73	COC(=O)c1cccc(NC(=O)CCc2cc(OC)c(OC)c(OC)c2)c1	12	4	-28	7	2492	2	7.3
74	CCN(CC(=O)Nc1ccc2c(c1)OCCO2)Cc1cc(=O)oc2c(C)c(C)ccc12	0	6	-9	-8	20523*	5	5.4

In the list so far, these have an aryl methoxy group.
cpd	Molecule	Mtb hypoxia inh	Sa ugtP lethal	PrP 5UTR inh	Mtb hypoxia inh growth	Autofluor counter	BJeLR viability	Sa RN4220 lethal
11	COc1ccc(-c2sc3cc4c(cc3c2C#CCO)OCO4)cc1	10	-12	-3	14	4170	x	4.8
19	COc1cccc(C(=O)C2CCCN(Cc3cn(C)nc3-c3ccccc3)C2)c1 (stereo not drawn)	-2	5	-12	-2	2764	0	2.4
21	COc1cc(-c2c(C#N)c(=O)[nH]c3c2c(C)nn3-c2ccccc2)ccc1O	5	15	-13	-8	u	2	2.1
26	COc1ccc(Cn2nnnc2CN2CCc3ccccc32)cc1	1	10	11	-3	9508	-3	7.8
29	COc1ccc(C2NC(=O)c3n[nH]c(C)c32)c(OC)c1 (stereo not drawn)	2	9	5	5	5192	5	6.0
31	COc1cccc(C(=O)N(Cc2ccco2)c2c(N)n(Cc3ccccc3)c(=O)[nH]c2=O)c1	-5	5	-15	-3	x	x	5.0
40	COc1cc(/C=C(/C#N)C(=O)Nc2ccccc2)c(Br)cc1OCc1ccc(C(=O)O)cc1	8	2	-2	-5	4785	-13	1.4
52	COc1cccc2sc3ccc(C#CC4(N)CCCCC4)cc3c(=O)c12	-2	0	-29	-2	4296	-7	0.2
56	COc1ccc(OCC(=O)Nc2ccccc2C(=O)NC(C)C)cc1	13	5	-31	8	2510	-5	5.5
65	COc1ccccc1NS(=O)(=O)c1ccc2oc(N)nc2c1	4	6	-28	7	5725	-4	0.0
73	COC(=O)c1cccc(NC(=O)CCc2cc(OC)c(OC)c(OC)c2)c1	12	4	-28	7	2492	2	7.3

Compounds were not picked by outcome; 4% or so of the library scored in one or more.
